CSN inh: inhibitors of CSN-mediated cullin deneddylation, primary screen, biochemical, fluorescence polarization, uHTS; inhibition, % at 12.5 µM; COP9 signalosome complex subunit 5 (Homo sapiens), Q92905; AID 651999, 2013; Purified CSN, SCF-Nedd8-OG deneddylation; hit rate 0.38% among 360,000;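 active means pattern-corrected inhibition above about 35%, with an unprinted fluorescence ratio check between 0.5 and 1.5, limit read from the data, passing the limit was not always enough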;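 further: 0% = enzyme with substrate and 100% = substrate without enzyme; some results filed as inactive read as strong as hits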
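Material: human Csn5 produced in HEK293T cells; Input: enzyme 0.24 nM; Reagent: SCFSkp2-Nedd8OG substrate at 10 nM final; Dosing: 12.5 µM compound; Incubation: 90 min reaction at room temperature; Detection: fluorescence polarization of the substrate; Evaluation: % inhibition of substrate cleavage by Csn5; Control set: substrate-only high control, full reaction low control.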
Rpn11 inh: Rpn11 (PSMD14) deubiquitinase inhibitors, primary screen, biochemical, fluorescence polarization, uHTS; hit rate 0.59% among 360,000; human 26S proteasome, Ub4-pepOG fluorescence polarization; 20S core pre-blocked with epoxomicin; calls only at 20 µM; 26S proteasome non-ATPase regulatory subunit 14 (Homo sapiens), O00487; AID 588493, 2011;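 active means inhibition at 20 µM, scaled to each plate's controls, above about 33%, limit read from the data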
MLLE-PAM2 inh: inhibitors of PABP1 MLLE–PAM2 peptide binding, primary screen, biochemical, fluorescence polarization, FITC-PAM2, GST-MLLE; Polyadenylate-binding protein 1 (Homo sapiens), P11940; inhibition, % at 20 µM; hit rate 0.36% among 360,000; in the data active means inhibition above about 35%, passing the limit was not always enough;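 further: plate controls were DMSO wells with GST-MLLE for no effect and wells lacking GST-MLLE protein for full effect; some results filed as inactive read as strong as hits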
FAS-TE inh: FAS thioesterase domain inhibitors, primary screen, biochemical, fluorescence intensity, uHTS; Fatty acid synthase (Homo sapiens), P49327; recombinant FAS-TE, OMFH fluorogenic substrate, fluorescence endpoint; AID 602261, 2012; hit rate 0.67% among 360,000; inhibition, % at 15 µM;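 active means compounds whose normalised, plate-corrected inhibition of enzyme fluorescence in the single-dose primary screen is 50% or more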;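 further: 0% = DMSO with enzyme and 100% = substrate without enzyme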
Neddyl block: inhibitors of cullin neddylation, primary screen, biochemical, TR-FRET, uHTS, NAE and Ubc12; NEDD8-conjugating enzyme Ubc12 (Homo sapiens) + NEDD8-activating enzyme E1 regulatory …; calls only at 25 µM; hit rate 0.58% among 360,000; AID 651699, 2012; in the data active means inhibition above about 36%
* hit, by the source's call. The list is partial; count on the stated rates, not on these rows.

`COc1cccc(N2CCN(CC(=O)Nc3ccc(-n4cnnn4)cc3)CC2)c1` gave CSN inh 6, Rpn11 inh inactive, MLLE-PAM2 inh -1, FAS-TE inh -5 and Neddyl block inactive.
Screening COc1ccccc1C(=O)NNC(=S)NC(=O)c1ccco1 returned CSN inh -8, Rpn11 inh inactive, MLLE-PAM2 inh 11, FAS-TE inh -7 and Neddyl block inactive.
`Cc1nn(-c2ccccc2)c(Cl)c1/C=N/NC(=O)c1ccncc1` gave CSN inh -3, Rpn11 inh inactive, MLLE-PAM2 inh 5, FAS-TE inh -3 and Neddyl block inactive.
`Cc1ccc(Oc2ccc(C(=O)NCc3ccncc3)cc2)cc1` gave CSN inh 3, Rpn11 inh inactive, MLLE-PAM2 inh -15, FAS-TE inh -4 and Neddyl block inactive.
`CC(C)(C)c1ccc(-n2ncc3c2CCCC3NC(=O)CCN2CCCC2=O)cc1` (stereo not drawn) gave CSN inh -4, Rpn11 inh inactive, MLLE-PAM2 inh 2, FAS-TE inh -3 and Neddyl block inactive.
`O=C(O)C1CCN(S(=O)(=O)/C=C/c2ccccc2)CC1` gave CSN inh 2, Rpn11 inh inactive, MLLE-PAM2 inh -8, FAS-TE inh -7 and Neddyl block inactive.
Cc1ccc(-c2nn(C(C)(C)C)c3ncnc(N)c23)cc1 was read as CSN inh -9, Rpn11 inh inactive, MLLE-PAM2 inh -9, FAS-TE inh 0 and Neddyl block inactive.
Screening Oc1ccc(-c2nc(-c3ccc(F)cc3)c(-c3ccncc3)[nH]2)cc1 returned CSN inh -4, Rpn11 inh inactive, MLLE-PAM2 inh -6, FAS-TE inh 4 and Neddyl block inactive.
CCOC(=O)c1c(C)oc2ccc(O)cc12 was read as CSN inh -1, Rpn11 inh active, MLLE-PAM2 inh 0, FAS-TE inh -4 and Neddyl block inactive.
Screening CNC(=O)c1cc(Oc2ccc(NC(=O)Nc3ccc(Cl)c(C(F)(F)F)c3)cc2)ccn1 returned CSN inh -2, Rpn11 inh inactive, MLLE-PAM2 inh -8, FAS-TE inh 22 and Neddyl block inactive.

Nothing new here: an excerpt of the list.
`COc1cccc(N2CCN(CC(=O)Nc3ccc(-n4cnnn4)cc3)CC2)c1` gave CSN inh 6, Rpn11 inh inactive, MLLE-PAM2 inh -1, FAS-TE inh -5 and Neddyl block inactive.
Screening COc1ccccc1C(=O)NNC(=S)NC(=O)c1ccco1 returned CSN inh -8, Rpn11 inh inactive, MLLE-PAM2 inh 11, FAS-TE inh -7 and Neddyl block inactive.
`Cc1nn(-c2ccccc2)c(Cl)c1/C=N/NC(=O)c1ccncc1` gave CSN inh -3, Rpn11 inh inactive, MLLE-PAM2 inh 5, FAS-TE inh -3 and Neddyl block inactive.
`Cc1ccc(Oc2ccc(C(=O)NCc3ccncc3)cc2)cc1` gave CSN inh 3, Rpn11 inh inactive, MLLE-PAM2 inh -15, FAS-TE inh -4 and Neddyl block inactive.
`CC(C)(C)c1ccc(-n2ncc3c2CCCC3NC(=O)CCN2CCCC2=O)cc1` (stereo not drawn) gave CSN inh -4, Rpn11 inh inactive, MLLE-PAM2 inh 2, FAS-TE inh -3 and Neddyl block inactive.

Two compounds drawn at random from those above, as already listed:
`CC(C)(C)c1ccc(-n2ncc3c2CCCC3NC(=O)CCN2CCCC2=O)cc1` (stereo not drawn) gave CSN inh -4, Rpn11 inh inactive, MLLE-PAM2 inh 2, FAS-TE inh -3 and Neddyl block inactive.
`O=C(O)C1CCN(S(=O)(=O)/C=C/c2ccccc2)CC1` gave CSN inh 2, Rpn11 inh inactive, MLLE-PAM2 inh -8, FAS-TE inh -7 and Neddyl block inactive.

Compound activity as filed in PubChem BioAssay.
